TRPV1 PAM: enhances activation of the human vanilloid receptor TRPV1; potentiation, % at 8.33 µM; AID 540277; TRPV1-expressing cells, Fluo-8 calcium influx, capsaicin EC20 potentiation; host cell line not named in the record; control for the full effect not named in the record; hit rate 0.02% among 320,000; active means potentiation above 80%; inconclusive means 30% to 80%; inactive means below 30%; note: 0% is about no effect
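Cells expressing TRPV1 were dye-loaded with Fluo-8 and read kinetically: 10 s baseline, 3 min after compound (agonist portion), then 2 min after EC20 capsaicin (allosteric enhancer portion). Calcium-bound dye fluorescence at 480/520 nm.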
Menin MLL FP FL: inhibitors of human menin-MLL interaction, wild-type MLL peptide; Fluorescence polarization, fluorescein-MLL peptide displacement from menin; FP activity change, % at 61.4 µM; 290,000 tested, under 10 active; AID 1766; inconclusive = falling polarisation curve, or a change in total fluorescence; inactive = total fluorescence flat and polarisation flat or rising; no compound was filed as active; the % refers to the polarisation; negative = inhibition;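 note: % of control where 0% means no effect; inhibitors lower the polarisation; unlabelled MLL peptide was the positive control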
gsp agonist: agonists of gsp mutant (McCune-Albright syndrome); gsp mutant cells, cAMP HTRF, 30 min; control for the full effect not named in the record; hit rate 0.13% among 340,000; AID 624287; Potency, µM (highest dose often 76.9 µM), for inactives: top-dose activation (cAMP increase), hits mostly activators; active = well fitted activation curve with a large enough effect; inconclusive = small, poorly fitted or top-dose-only effect, or another doubt; inactive = no such curve, though single readings can be large or run the other way; cell line not stated here;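 note: phosphodiesterase inhibitor Ro 20-1724 added with compounds to block cAMP breakdown; potency is the fitted concentration of half-maximal effect; nearly all actives have a fitted effect of over 60% in size; about a fifth of the inactives were tested at one dose only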
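Cells stably selected in G418 were plated at 2000/well, grown 16-24 hr, then given compounds in DMSO with the PDE inhibitor […] (300 uM solution added) for 30 min at 37C; cAMP was read by HTRF.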
Sfp inh: blocks B. subtilis Sfp PPTase activity | Q9F4F7 | Biochemical Sfp PPTase activity, qHTS | AID 1490 | Potency, µM, for inactives: max response, negative = inhibition, usual class: inhibitors | hit rate 3.5% among 310,000; active = well fitted inhibition curve with a large enough effect; inconclusive = small, poorly fitted or top-dose-only effect, or another doubt; inactive = no such curve, though single readings can be large or run the other way;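 note: the enzyme is Sfp with the accession as filed and its product quenches rhodamine fluorescence; potency is the fitted concentration of half-maximal effect; 0% = enzyme reaction without inhibitor and -100% = no enzyme wells; top concentration of the series not given in the record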
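Step 1, compound plus 15 nM Sfp-PPTase, 15 min, room temperature. Step 2, add rhodamine-CoA (5 uM) and BHQ-2-YbbR (12.5 uM). Step 3, read 525/598 nm fluorescence at 0 and 30 min.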
D2 potentiator: positive allosteric modulators of human D2 dopamine receptor. potentiation, % (no concentration beside the values). DiscoveRx D2 beta-arrestin cells, luminescence, 90 min; 100% = 57 uM dopamine signal. hit rate 0.23% among 360,000. P14416; active = potentiation of 50% or more; inconclusive = 30% to 50%; inactive = 30% or less;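 note: compound concentration not given in the record; tested on top of an EC20 dose of dopamine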
Target sequence (P14416 whole entry, looked up): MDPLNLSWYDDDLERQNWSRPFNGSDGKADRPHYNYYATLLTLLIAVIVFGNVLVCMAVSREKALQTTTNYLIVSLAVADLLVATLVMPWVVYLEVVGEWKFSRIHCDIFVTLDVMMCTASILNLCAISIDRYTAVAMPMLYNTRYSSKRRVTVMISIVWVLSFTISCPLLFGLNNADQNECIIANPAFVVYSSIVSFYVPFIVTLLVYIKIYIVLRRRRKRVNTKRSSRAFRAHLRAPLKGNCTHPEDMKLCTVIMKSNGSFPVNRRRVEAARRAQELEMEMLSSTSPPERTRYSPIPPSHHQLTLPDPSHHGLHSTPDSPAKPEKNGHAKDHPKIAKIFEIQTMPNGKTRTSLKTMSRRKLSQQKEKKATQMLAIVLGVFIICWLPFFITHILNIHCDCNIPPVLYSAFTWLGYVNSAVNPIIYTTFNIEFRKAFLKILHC
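D2 cells co-treated with compound plus 50 nM dopamine (EC20) for 90 min at 37 deg C to detect potentiation. Beta-arrestin recruitment was read as enzyme-fragment luminescence after 1 h at ambient temperature. Full response was set by 57 uM dopamine.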
gsp antag: antagonizes gsp, the McCune-Albright syndrome mutation; gsp-mutant cells, cAMP HTRF, 30 min; control for the full effect not named in the record; Potency, µM (titrated, usually from 76.9 µM), for the others: at the highest dose activity change, negative = inhibition, hits mostly inhibitors; hit rate 0.4% among 340,000; active = falling curve of any shape with a large fitted effect; inconclusive = falling curve, mostly with a smaller effect; inactive = flat or rising curve; cell line not stated here;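 note: intracellular cAMP measured with PDE inhibitor Ro 20-1724 present during compound exposure; potency is the fitted concentration of half-maximal effect; % is set by controls: 0 for no effect and ±100 for the full control effect; nearly all actives have a fitted effect of over 65% in size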
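Cells, 2000/well, grown 16–24 h in DMEM 10% FBS with 0.5 mg/ml G418, then compounds plus […] (300 uM addition stock), 30 min at 37C. cAMP read by HTRF (cAMP-d2 and anti-cAMP antibody-K in lysis buffer) after 30 min RT.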
ClpP mod: qHTS Assay for Activators of ClpP | hit rate 1.9% among 340,000 | Potency, µM (highest dose often 57.5 µM), for inactives: top-dose activity change, negative = active | AID 651965, 2013 | purified B. subtilis ClpP, FRET peptide cleavage, 20 min | ATP-dependent Clp protease proteolytic subunit (Bacillus subtilis (strain 168)), P80244; active = well fitted falling curve with a large enough effect; inconclusive = small, poorly fitted or top-dose-only effect; inactive = no such curve, though single readings can be large or run the other way; note: potency is the fitted concentration of half-maximal effect; the source files actives as falling curves though it sought activators and does not explain the sign; nearly all actives have a fitted effect of over 65% in size; many hits overshoot -100%
Target sequence (P80244 whole entry, looked up): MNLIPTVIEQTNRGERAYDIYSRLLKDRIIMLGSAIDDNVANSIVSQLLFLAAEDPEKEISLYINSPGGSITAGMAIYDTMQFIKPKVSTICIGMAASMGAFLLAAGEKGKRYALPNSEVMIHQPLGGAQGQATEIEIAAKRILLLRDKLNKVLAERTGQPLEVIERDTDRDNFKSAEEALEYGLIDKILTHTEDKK
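FRET quenching reversal measured ClpP activation: 10 microg/mL B. subtilis ClpP at pH 8 with the FRET-FV decapeptide, read at 430 nm after 320 nm excitation. The 20-min minus 0-min signal was scaled between DMSO/no-enzyme wells and ADEP (5.8 microM final).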
* = called active by the depositor; ? = inconclusive; . = no result given; [ ] = remark or other dose.

| no. | smiles | D2 potentiator | gsp antag | Menin MLL FP FL | TRPV1 PAM | Sfp inh | gsp agonist | ClpP mod |
| --- | --- | --- | --- | --- | --- | --- | --- | --- |
| 1 | CC(=O)N1CC(C)Oc2ccc(S(=O)(=O)NC(CC(=O)O)c3ccccc3C)cc21 (stereo not given) | -1 | 12% | -3.6 | 4 | 20% | 1% | 1.9% |
| 2 | O=C(CN1CCN(C(=O)c2ccco2)CC1)Nc1ccccc1 | 6 | 7% | -0.6 | 9 | 0% | 0% | . |
| 3 | COc1cccc(NC(=O)C2CC(=O)N=C(N)S2)c1 (stereo not given) | -3 | -17% | 1.0 | 1 | 24% | -18% | 0.4% |
| 4 | O=C(CSc1ccc(F)cc1)Nc1ccccc1Br | -15 | 4% | 1.1 | -4 | 15% | 3%[15.4 µM] | -1.7% |
| 5 | CCOc1cc(CNCc2ccccn2)ccc1OCC(=O)NC1CCCCC1 | -19 | 17% | -0.2 | 4 | 16% | -16% | -1.5% |
| 6 | O=C(CSc1cccc[n+]1[O-])NC1CCCCCCC1 | -12 | -4% | 2.2 | -2 | 4% | 6%[15.4 µM] | -27% |
| 7 | CCN(CCO)Cc1cc(=O)oc2cc3c(cc12)CCC3 | 2 | -1% | 0.6 | 18 | 9% | 6%[15.4 µM] | -1.6% |
| 8 | CN(CCCNC(=O)CSc1cc(=O)n(C)c2cc(Cl)ccc12)Cc1ccccc1 | -9 | 0% | -5.0 | 4 | 8% | 18µM* | . |
| 9 | O=C(Cc1ccc(F)cc1)NCCS(=O)(=O)N1CCN(c2cccc(Cl)c2)CC1 | 11 | -4% | . | -19 | . | -49% | -3.3% |
| 10 | CCn1c(COc2ccccc2OC)nnc1SCC(=O)NC1CCCC1 | 6 | -17% | -5.0 | 12 | 21% | 3%[15.4 µM] | 0.7% |
| 11 | O=C(CCl)Oc1ccc2occ(C(=O)c3cccs3)c2c1 | -7 | 5% | 4.0 | 4 | -4% | 4%[15.4 µM] | -11% |
| 12 | CC(C)CC1C(=O)N(Cc2cn(CCC3OCCCO3)nn2)CCS(=O)(=O)N1Cc1ccc(-c2ccc(Cl)c(Cl)c2)cc1 (stereo not given) | -9 | . | . | . | . | -59%[inhibitor] | 0.0% |

Next section; the last four above are carried over.
| no. | smiles | D2 potentiator | gsp antag | Menin MLL FP FL | TRPV1 PAM | Sfp inh | gsp agonist | ClpP mod |
| --- | --- | --- | --- | --- | --- | --- | --- | --- |
| 9 | O=C(Cc1ccc(F)cc1)NCCS(=O)(=O)N1CCN(c2cccc(Cl)c2)CC1 | 11 | -4% | . | -19 | . | -49% | -3.3% |
| 10 | CCn1c(COc2ccccc2OC)nnc1SCC(=O)NC1CCCC1 | 6 | -17% | -5.0 | 12 | 21% | 3%[15.4 µM] | 0.7% |
| 11 | O=C(CCl)Oc1ccc2occ(C(=O)c3cccs3)c2c1 | -7 | 5% | 4.0 | 4 | -4% | 4%[15.4 µM] | -11% |
| 12 | CC(C)CC1C(=O)N(Cc2cn(CCC3OCCCO3)nn2)CCS(=O)(=O)N1Cc1ccc(-c2ccc(Cl)c(Cl)c2)cc1 (stereo not given) | -9 | . | . | . | . | -59%[inhibitor] | 0.0% |
| 13 | CCC(=O)c1ccc(OCC(O)CN2CCCCC2)cc1 (stereo not given) | -15 | 14% | -2.1 | ? | 3% | -5% | -1.1% |
| 14 | CSc1nnc2ccc(-c3ccc(C)cc3)nn12 | -5 | -3% | 3.5 | ? | 4% | ? | -19% |
| 15 | CCCCCCCCC(=O)NCCOc1ccc(OC)cc1 | -2 | 12% | -3.8 | -24 | 20% | -16% | -9.5% |
| 16 | Cc1ccccc1C1CCCN(Cc2nc(C3CC3)no2)C1 (stereo not given) | -4 | 2% | 1.8 | -13 | -6% | -22%[15.4 µM] | . |
| 17 | NC(=O)COC(=O)CSc1ccc2ccccc2c1 | -1 | 3% | -6.9 | 0 | 8% | 32% | . |
| 18 | CC(c1ccccc1)n1c(N2CCNCC2)nc2c1c(=O)[nH]c(=O)n2C (stereo not given) | -4 | 10% | -1.4 | 29 | 25% | -6% | -3.1% |
| 19 | COc1ccc(-c2cc(=Nc3ccc(C)cc3)c3ccccc3o2)cc1 | -35 | -27% | 2.0 | -20 | ? | 29% | -9.3% |
| 20 | COc1cc(C(=O)OCC(C)=O)c([N+](=O)[O-])cc1OC | -4 | 8% | 1.3 | -1 | -5% | -6%[15.4 µM] | . |
| 21 | Nc1c(C(=O)N/N=C/c2cccnc2)cnn1-c1ccccc1 | 15 | -6% | -3.0 | 26 | 3% | 23% | -1.7% |
| 22 | O=S1(=O)N=C(N2CCc3ccccc3C2)c2ccccc21 | -12 | -2% | 0.8 | -9 | 2% | -10% | -0.8% |
| 23 | Cc1ccc(S(=O)(=O)N(NC2=NS(=O)(=O)c3ccccc32)C(=O)c2ccccc2)cc1 | 3 | 1% | 10.0 | -2 | 9% | -30%[inhibitor] | -0.3% |
| 24 | Cc1ccc(-n2nc3c(N4CCC(C(=O)N5CCN(C)CC5)CC4)nnc(C)c3c2C)cc1 | -12 | 16% | ? | -5 | 8% | -37%[inhibitor] | -12% |
| 25 | Cn1c(=O)oc2cc(S(=O)(=O)N3CCN(c4cccc(Cl)c4)CC3)ccc21 | -11 | 15% | ? | -6 | 5% | 4% | 1.3% |
| 26 | COc1cc(OC)c(NC(=O)C2CCCO2)cc1Cl (stereo not given) | 1 | -1% | 1.8 | 7 | 21% | -9% | 0.3% |
| 27 | O=C(CNC(=O)c1ccco1)OC(C(=O)c1ccccc1)c1ccccc1 (stereo not given) | -9 | -2% | 2.8 | 11 | 2% | 23% | 1.1% |
| 28 | CCCCC(=O)NCc1ccc(F)cc1 | 6 | 11% | 12 | -2 | 10% | 6% | -2.6% |
| 29 | CCCOc1ccc(Cn2c(O)cc(=O)[nH]c2=O)cc1 | 12 | -15% | 26 | 9 | 45µM* | -41%[inhibitor] | -0.8% |
| 30 | O=C1CC(c2ccccc2)Cc2nc3nc(C(F)(F)F)nn3cc21 (stereo not given) | 15 | -29% | 9.3 | 6 | -6% | -33%[inhibitor] | 79% |
| 31 | CC1OC(Nc2ccc(N=Nc3ccccc3)cc2)C(O)C(O)C1O (stereo not given) | -11 | -6% | -2.9 | -3 | 5% | -49%[inhibitor] | . |
| 32 | CC(C)(C)Nc1nc(SCC(=O)Nc2ccccc2)nc(N2CCOCC2)n1 | -22 | -1% | 1.0 | -6 | -7% | -12%[15.4 µM] | -1.2% |
| 33 | Fc1ccc(/C=N/NC(=S)Nc2ccc(Cl)cc2Cl)cc1 | -7 | -5% | 5.8 | -1 | 2% | -1%[15.4 µM] | . |
| 34 | O=c1nc2n(c3ccc([N+](=O)[O-])cc13)CCCCC2 | -20 | . | 0.3 | 2 | 5% | -8%[15.4 µM] | . |
| 35 | Cc1ccc(SCCN)cc1C | -5 | 13% | -3.5 | -4 | 19% | ? | . |
| 36 | CCOC(=O)C1=C(C)C(c2ccccc2O)NC(=O)N1 (stereo not given) | -2 | -1% | 3.7 | 14 | 11% | 16% | 0.1% |
| 37 | COc1ccc(N(CC(=O)NCC(C)C)S(=O)(=O)c2ccccc2)cc1 | -4 | 6% | 4.7 | 1 | 16% | -2%[15.4 µM] | . |
| 38 | CC(=O)Nc1ccc(S(=O)(=O)N(C)c2nc3ccccc3nc2Cl)cc1 | 7 | -15% | 0.3 | -12 | 16% | -9%[15.4 µM] | -12% |
| 39 | COc1cc(C2NC(=S)NC(O)(C(F)(F)F)C2C(=O)c2cccs2)cc(OC)c1O (stereo not given) | -13 | -2% | -1.6 | -2 | -16% | -42%[inhibitor] | 3.8% |
| 40 | CCc1ccc(Nc2cc(C)nc3nc(C)nn23)cc1 | 12 | -5% | -1.3 | -13 | 9% | -20% | -1.7% |
| 41 | O=C(Oc1cccc(N2C(=O)CCC2=O)c1)C1CC(=O)N(c2ccc(Br)cc2)C1 (stereo not given) | 12 | -18% | 5.9 | -3 | -7% | -56%[inhibitor] | -0.5% |
| 42 | COc1ccc(C(=O)NCC2CCCN2S(=O)(=O)c2ccccc2)cc1OC (stereo not given) | -12 | . | . | . | . | -9% | 0.0% |
| 43 | COc1ccc(CNC(=S)NCc2ccc(Cl)cc2)cc1OC | -15 | 5% | -0.5 | 5 | 6% | ? | -0.7% |
| 44 | CCOc1ccccc1N1C(=O)CN(Cc2ccc(OC)c(OC)c2)C1=S | -1 | -5% | -5.4 | -19 | -18% | -20% | -0.3% |
| 45 | Cc1ccc(C(=O)/C=C/c2ccc(F)cc2)o1 | 2 | 0% | 3.7 | -4 | -11% | 1% | -3.3% |
| 46 | COc1ccc(NC(=O)COC(C)=O)cc1Cl | -3 | 1% | -1.0 | -5 | 4% | 8% | -0.2% |
| 47 | COc1ccc(C(CC(=O)N2CCCC2)c2ccc(F)cc2)cc1 (stereo not given) | 5 | -16% | 1.7 | -24 | 4% | ? | . |
| 48 | Cc1cccc(N2CCN(C(=O)c3ccc(NC4=NC5CS(=O)(=O)CC5S4)cc3)CC2C)c1 (stereo not given) | 1 | 13% | . | 0 | 7% | ? | 1.7% |
| 49 | CCOc1cc(C(=O)OCc2ccc([N+](=O)[O-])cc2)ccc1OCC(=O)N1CCOCC1 | 9 | -24% | . | -10 | . | 11% | -2.0% |
| 50 | COCCCNC(=O)C1CC(=O)N(C2CCCC2)C1 (stereo not given) | 1 | -1% | 0.7 | -2 | 8% | 29% | 0.0% |
| 51 | COc1ccccc1NC(=O)c1cc(C)nc2ccccc12 | -7 | -3% | -5.2 | -15 | 31%[activator] | -26% | -0.7% |
| 52 | CCCCN(Cc1nc2ccccc2c(=O)[nH]1)C(=O)CN1C(=O)NC2(CCCCC2)C1=O | -6 | -8% | . | 11 | . | -5% | -4.4% |
| 53 | CCn1c(CNS(=O)(=O)c2ccc(Cl)cc2)n[nH]c1=S | -20 | -3% | -0.3 | -1 | 19% | 6%[15.4 µM] | . |
| 54 | Cc1ccc(CONC(=O)c2ccccc2Cl)cc1 | -1 | 3% | . | -28 | . | -9% | -1.0% |
| 55 | Cc1nc2cc(-c3ccc(Cl)cc3)nn2c(C)c1CCC(=O)NC(C)c1ccc2c(c1)OCCO2 (stereo not given) | 3 | ? | 2.8 | 9 | 0% | -1% | 4.1% |
| 56 | O=C(COc1ccccc1)NC(=S)Nc1cccc2c(O)cccc12 | -14 | . | . | . | . | 10% | 6.8% |
